# Screening data as filed in PubChem BioAssay.
# D2 agonist: human D2 receptor agonism in beta-arrestin assay; P14416; DiscoveRx PathHunter D2 beta-arrestin, luminescence, 90 min; 100% = 57 uM dopamine signal; activation, % (concentration not given with the values); actives 0.084% (n = 360,000); AID 624465; in the data active = activation above about 40%; inconclusive = about 15% to 40%; inactive = below about 15%; note: compound concentration not given in the record; the text of the record calls up to 30% inactive
# Target sequence (P14416 whole entry, looked up): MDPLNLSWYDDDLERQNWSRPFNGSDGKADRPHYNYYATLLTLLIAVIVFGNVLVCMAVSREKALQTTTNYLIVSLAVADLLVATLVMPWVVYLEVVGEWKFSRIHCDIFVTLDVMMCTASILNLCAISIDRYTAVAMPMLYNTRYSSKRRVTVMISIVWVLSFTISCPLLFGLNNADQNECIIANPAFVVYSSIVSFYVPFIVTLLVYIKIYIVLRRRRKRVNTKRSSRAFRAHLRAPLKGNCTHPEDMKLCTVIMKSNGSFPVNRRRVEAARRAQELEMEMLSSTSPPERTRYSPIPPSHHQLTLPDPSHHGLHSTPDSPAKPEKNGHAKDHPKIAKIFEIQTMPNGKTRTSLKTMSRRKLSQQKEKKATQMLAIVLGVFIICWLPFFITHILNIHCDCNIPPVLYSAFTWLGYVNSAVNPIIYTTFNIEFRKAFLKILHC
#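 Agonist mode: compounds alone added to overnight-plated D2 PathHunter cells for 90 min at 37 C, with 57 uM final dopamine (EC100) defining full response. Beta-arrestin recruitment detected by chemiluminescent reagent, read after 1 h at ambient temperature.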
# Six1-Eya2 inh: Six1/Eya2 interaction inhibition; actives 0.56% (n = 360,000); AID 651725; activity change, % (no concentration beside the values); AlphaScreen GST-Six1/His-Eya2 binding, biochemical; stronger effect = lower value; control for the full effect not named in the record; Q15475+O00167; in the data active = activity change below about -65%; inconclusive = about -30% to -65%; inactive = above about -30%; note: % is set by controls: 0 for no effect and ±100 for the full control effect; compound concentration not given in the record
#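 Six1/Eya2 binding was read as AlphaScreen signal after compounds were pinned into GST-Six1 plus His-tagged Eya2 (5X stock 250/500 nM) in pH 8.0 Tris/NaCl/TCEP buffer, beads added, then incubated 1 h, 37 C, dark.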
# gsp antagonist: gsp mutant antagonism; gsp-mutant cells, cAMP HTRF, 30 min; control for the full effect not named in the record; Potency, µM (doses to about 76.9 µM), inactives show at the top dose activity change, negative = inhibition, usual class: inhibitors; actives 0.4% (n = 340,000); active = falling curve of any shape with a large fitted effect; inconclusive = falling curve, mostly with a smaller effect; inactive = flat or rising curve; cell line not stated here;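 note: intracellular cAMP measured with PDE inhibitor Ro 20-1724 present during compound exposure; potency is the fitted concentration of half-maximal effect; % is set by controls: 0 for no effect and ±100 for the full control effect; nearly all actives have a fitted effect of over 65% in size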
#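 Measurement of cellular cAMP by homogeneous time-resolved fluorescence following a 30 min compound exposure at 37C. The PDE inhibitor […] was present throughout; the assay buffer was DPBS with 0.05% BSA and 0.005% Tween 20.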
# gsp agonist: activates gsp, the McCune-Albright syndrome mutation. gsp mutant cells, cAMP HTRF, 30 min; control for the full effect not named in the record. actives 0.13% (n = 340,000). Potency, µM (titrated, usually from 76.9 µM), inactives show top-dose activation (cAMP increase), actives largely listed as activators; active = well fitted activation curve with a large enough effect; inconclusive = small, poorly fitted or top-dose-only effect, or another doubt; inactive = no such curve, though single readings can be large or run the other way; cell line not stated here;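 note: phosphodiesterase inhibitor Ro 20-1724 added with compounds to block cAMP breakdown; potency is the fitted concentration of half-maximal effect; nearly all actives have a fitted effect of over 60% in size; about a fifth of the inactives were tested at one dose only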
#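 Cells stably selected in G418 were plated at 2000/well, grown 16-24 hr, then given compounds in DMSO with the PDE inhibitor […] (300 uM solution added) for 30 min at 37C; cAMP was read by HTRF.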
# CtBP-E1A blk: inhibitors of CtBP/E1A interaction; AlphaScreen GST-E1A/His-CtBP binding, 1536-well; stronger effect = lower value; control for the full effect not named in the record; activity change, % (concentration not given with the values); actives 0.49% (n = 340,000); AID 651724; in the data active means activity change below about -65%; inconclusive means about -30% to -65%; inactive means above about -30%; note: % is set by controls: 0 for no effect and ±100 for the full control effect
#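 Steps: dispense buffer (Tris pH 8.0, NaCl 300 mM, TCEP 1 mM, BSA, Tween 20); add 5X protein mix (GST-E1A, His-CtBP, 125 nM each); pin 23 nL compound; 2 h at 37 °C, dark; add 5X beads (50 ug/mL); 1 h; read.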
# D2 potentiator: potentiates the human D2 dopamine receptor allosterically; potentiation, % (test concentration not listed); actives 0.23% (n = 360,000); P14416; DiscoveRx D2 beta-arrestin cells, luminescence, 90 min; 100% = 57 uM dopamine signal; active = potentiation of 50% or more; inconclusive = 30% to 50%; inactive = 30% or less;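 note: compound concentration not given in the record; tested on top of an EC20 dose of dopamine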
#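 PathHunter beta-arrestin assay in DiscoveRx D2 cells. Compounds were added with an EC20 of dopamine (50 nM final) for 90 min at 37 deg C. Luminescence was read 1 h after detection reagent, with 57 uM dopamine as the EC100 control.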
# Starred values were filed as active, the others as inactive; ? = inconclusive; · = no result given; [ ] = remark or other dose.
SMILES,D2 agonist,Six1-Eya2 inh,gsp antagonist,gsp agonist,CtBP-E1A blk,D2 potentiator
CCOC(=O)C(=O)NNc1ccc(C)cc1,-8.3,-1,-1%,2%,-13,-8
Cc1ccc(C)c(-n2c3nc(=O)n(C)c(=O)c-3cc3ccccc32)c1,-3.4,0,-4%,5%,·,-24
O=C(CSc1nccn1-c1ccc(F)cc1)NCc1ccc2c(c1)OCO2,-2.0,-6,-20%,-15%,-17,1
CCCCCOC(=O)c1c(N)n(CCOC)c2nc3ccccc3nc12,0.0,11,-17%,-11%,14,-7
c1ccc(-c2nnc(SCC3CCCO3)nc2-c2ccccc2)cc1 (centres undefined),-3.9,13,-18%,7%[15.4 µM],-11,-5
Cc1ccc(NC(=O)c2nc[nH]c2C(=O)NCc2ccccc2)cc1,-3.3,-1,-3%,·,-2,-6
Oc1ccc(N=Nc2ccc3ccccc3c2)cc1,-5.8,-30,0%,21%,-23,-4
COC(=O)c1scc(C)c1NC(=O)C(Cl)c1ccccc1 (centres undefined),-5.0,4,0%,1%,·,-5
Cc1ccc(-c2nc(NCCCO)c3ccccc3n2)cc1,-0.7,-11,-10%,-32%[inhibitor],-9,-4
COc1ccccc1/C=N/NC(=O)C(NC(=O)c1ccccc1)=C(C)C,-3.1,4,0%,10%,-2,-5
CCOc1ccc(N(CC(=O)Nc2cccc(Br)c2)S(C)(=O)=O)cc1,-5.0,7,-1%,17%,·,-5
CC(C(=O)O)N1C(=O)C2C3c4ccccc4C(c4ccccc43)[C@@H]2C1=O (some centres undefined),-0.4,2,5%,-9%,10,-1
Cc1ccc(C(C)NC(=O)c2ccco2)cc1 (centres undefined),-1.2,7,13%,-4%,6,-7
Cc1cc(/C=C2\Cc3ccccc3C2=O)c(C)n1-c1ccccc1,-6.8,24,-2%,-16%[15.4 µM],-15,-6
O=C(N/N=C\c1cccnc1)c1ccc(Br)s1,-4.4,2,8%,-16%[15.4 µM],-3,-23
Cc1ccc([C@H]2C(C(=O)O)=CC[C@@H](c3ccc4c(c3)OCO4)N2S(=O)(=O)c2ccc(C)cc2)cc1,-1.0,4,-14%,·,1,·
O=c1cc(NCc2ccco2)c2ccccc2o1,-3.8,0,-2%,-24%,0,9
C=CCNC(=S)NCC1COc2ccccc2O1 (centres undefined),-3.4,-5,1%,7%,-2,-22
COC(=O)c1ccc2[nH]c(C3(O)CCCCC3)c(C)c2c1,3.7,-11,-10%,?,·,-2
Cc1c(C(N)=O)sc2ncn(CCOc3ccccc3)c(=O)c12,-5.0,-9,2%,-7%[15.4 µM],1,14
CCCNC(=O)C1(C)CCN(C(=O)c2cccc(C#N)c2)C1 (centres undefined),-3.7,3,·,·,8,-6
CCOC(=O)Cn1c(=O)oc2cc(S(=O)(=O)NCCCc3ccccc3)ccc21,-0.4,-1,-17%,-41%[inhibitor],8,-4
COc1ccc(-n2c(=O)c3c4c(sc3n(CC(=O)NC3CCCC3)c2=O)CCCC4)c(OC)c1,-9.5,-2,-3%,5%,·,-8
O=C(NC1CCCCC1)C(c1ccco1)N(Cc1ccco1)C(=O)c1ccco1 (centres undefined),-2.3,-4,-6%,-8%,-4,-19
Cc1ccc(C)n1-c1ccc(-c2ccnc(N)n2)cc1,-1.3,-17,-2%,-4%[15.4 µM],-14,0
COc1ccc(C(C(=O)NC2CCCCC2)N(C(=O)CCCC(=O)Nc2ccccn2)c2ccc3c(c2)OCCO3)cc1 (centres undefined),-0.4,-3,-2%,-17%,8,-9
CC(NC(=O)C(NS(=O)(=O)c1cccs1)C(C)C)c1ccc(S(N)(=O)=O)cc1 (centres undefined),-3.4,5,4%,3%,·,-6
CCN(C[C@H]1N[C@@](Cc2ccccc2)(C(=O)OC)[C@H]2C(=O)N(C)C(=O)[C@@H]12)C(=O)c1ccc(C)cc1,2.0,11,1%,·,3,·
O=C(CN1C(=O)NC2(CCc3ccccc32)C1=O)Nc1ccccc1Cl (centres undefined),-1.1,-4,8%,-2%,·,-12
COc1ccc(/C=N\NC(=O)c2ccc(F)cc2)cc1COc1ccccc1C(N)=O,-0.1,-26,-22%,1%[15.4 µM],-30,-5
CCOC(=O)C(CCCCC(NC(C)=O)(C(=O)OCC)C(=O)OCC)(NC(C)=O)C(=O)OCC,-4.2,4,19%,1%[15.4 µM],8,-8
CN(C)CC1CC/C(=C\c2ccc(O)cc2)C1=O (centres undefined),-2.5,-29,16%,14%,8,-43
O=C(NC(Cc1c[nH]c2ccccc12)C(=O)O)/C(=C\c1ccccc1)NC(=O)c1ccccc1 (centres undefined),-6.0,0,12%,0%,5,-1
O=C(Nc1ccc(Cl)c(Cl)c1)Nc1nnc(CSc2ccccc2)s1,-1.0,18,-12%,-3%[15.4 µM],-2,-6
C/C(=N\N1CCCCC1)c1ccccc1O,4.6,-3,2%,-22%,·,4
CC1CCc2sc(C(=O)NN=C3CCCC3)cc2C1 (centres undefined),-1.9,-1,·,-27%,4,-13
Cc1cc(C)c2c(C)nn(C3CCCCC3)c2n1,0.7,3,-4%,?,10,-13
Cc1cc(C)c(OCCOCCN2CCN(C)CC2)c(Cl)c1,-2.7,-5,11%,2%[15.4 µM],12,-12
CCCCn1c(N)c(N(CCOC)C(=O)c2cccc(S(=O)(=O)N(CC)c3ccccc3)c2)c(=O)[nH]c1=O,-0.9,5,-2%,-17%,3,-5
CC1(C)CC(N2CCN(C(c3ccccc3)c3ccccc3)CC2)=CC(=[N+]2CCCCC2)C1,-6.6,-5,3%,1%,·,-27
O=C(Cc1cccc2ccccc12)N/N=C/C=C/c1cccc([N+](=O)[O-])c1,2.9,-2,-17%,-9%,9,8
CCCCC1CCc2[nH]nc(C(=O)O)c2C1 (centres undefined),1.3,4,-8%,-3%,-1,-4
CCOc1cccc(C(=O)Nc2ccc(N3CCN(S(C)(=O)=O)CC3)cc2)c1,-3.6,21,28%,7%,0,-11
CN(CC(=O)Nc1ccc(F)cc1)C(=O)COC(=O)CNC(=O)c1sc2ccccc2c1Cl,-0.6,1,7%,?,1,-4
C[C@H](CO)N1C[C@H](C)[C@@H](CN(C)Cc2cccc(F)c2)Oc2cc(-c3cccc(C#N)c3)ccc2S1(=O)=O,-0.8,-1,·,-1%,3,·

# Nothing new here: entries from further up.
SMILES,D2 agonist,Six1-Eya2 inh,gsp antagonist,gsp agonist,CtBP-E1A blk,D2 potentiator
O=C(NC(Cc1c[nH]c2ccccc12)C(=O)O)/C(=C\c1ccccc1)NC(=O)c1ccccc1 (centres undefined),-6.0,0,12%,0%,5,-1
O=C(Nc1ccc(Cl)c(Cl)c1)Nc1nnc(CSc2ccccc2)s1,-1.0,18,-12%,-3%[15.4 µM],-2,-6
C/C(=N\N1CCCCC1)c1ccccc1O,4.6,-3,2%,-22%,·,4
CC1CCc2sc(C(=O)NN=C3CCCC3)cc2C1 (centres undefined),-1.9,-1,·,-27%,4,-13
Cc1cc(C)c2c(C)nn(C3CCCCC3)c2n1,0.7,3,-4%,?,10,-13
Cc1cc(C)c(OCCOCCN2CCN(C)CC2)c(Cl)c1,-2.7,-5,11%,2%[15.4 µM],12,-12
CCCCn1c(N)c(N(CCOC)C(=O)c2cccc(S(=O)(=O)N(CC)c3ccccc3)c2)c(=O)[nH]c1=O,-0.9,5,-2%,-17%,3,-5
CC1(C)CC(N2CCN(C(c3ccccc3)c3ccccc3)CC2)=CC(=[N+]2CCCCC2)C1,-6.6,-5,3%,1%,·,-27
O=C(Cc1cccc2ccccc12)N/N=C/C=C/c1cccc([N+](=O)[O-])c1,2.9,-2,-17%,-9%,9,8
CCCCC1CCc2[nH]nc(C(=O)O)c2C1 (centres undefined),1.3,4,-8%,-3%,-1,-4
CCOc1cccc(C(=O)Nc2ccc(N3CCN(S(C)(=O)=O)CC3)cc2)c1,-3.6,21,28%,7%,0,-11
CN(CC(=O)Nc1ccc(F)cc1)C(=O)COC(=O)CNC(=O)c1sc2ccccc2c1Cl,-0.6,1,7%,?,1,-4
C[C@H](CO)N1C[C@H](C)[C@@H](CN(C)Cc2cccc(F)c2)Oc2cc(-c3cccc(C#N)c3)ccc2S1(=O)=O,-0.8,-1,·,-1%,3,·

# New compounds follow:
SMILES,D2 agonist,Six1-Eya2 inh,gsp antagonist,gsp agonist,CtBP-E1A blk,D2 potentiator
Cc1cc([N+](=O)[O-])cnc1N1CCOCC1,-4.7,1,8%,-24%,3,-3
OC(COCc1ccco1)CN1CCN(c2ccccc2)CC1 (centres undefined),-2.1,1,7%,?,5,-14
CN(C(=O)CS(=O)(=O)c1cn(CC(=O)N2CCCCC2)c2ccccc12)c1ccccc1,-0.1,2,-2%,10%[15.4 µM],12,-3
O=C(Cc1c(O)c2ccccc2[nH]c1=O)NCc1ccccc1F,-1.8,8,-4%[15.4 µM],7%,1,-23
Cc1ccc(C)c(N(CC(=O)NN=C2CCCCCCC2)S(C)(=O)=O)c1,-4.5,11,1%,-43%[inhibitor],-2,12
COc1ccc(N2CCN(C(=O)CSc3nnc(-c4ccc5[nH]c(C)c(C)c5c4)o3)CC2)cc1,-1.4,-10,-8%,11%,3,4
CC(C)(C)C(=O)Nc1ncc(C(F)(F)F)cc1Cl,0.7,4,15%,0%,9,7
C[C@@H](CSc1ccccc1)CN1CC[C@H](C(C)(C)C)CCC1=O,2.4,-1,4%,16%,6,-10
CCC(C)(C)n1nnnc1C(C(C)C)N(Cc1ccco1)Cc1cc2cc3c(cc2[nH]c1=O)OCO3 (centres undefined),-1.6,-12,-17%,-9%,-8,-4
CN(C)S(=O)(=O)c1ccc(Cl)c(C(=O)NC2=NCCS2)c1,7.8,1,2%,-66%[inhibitor],0,-7
Cc1cc(C)c(NC(=O)CS(=O)CC(=O)NCC2CCCO2)c(C)c1 (centres undefined),-10.0,-13,-2%,32%[15.4 µM],5,-9
CC(C)c1ccc(NC(=O)Cn2nnc(C(=O)NCc3ccc4c(c3)OCO4)c2N)cc1,3.3,-1,13%,-20%,3,-7
CCCC(=O)Nc1ccc(C(=O)N2CCCC2)cc1,-3.3,9,1%,2%,5,-12
